UCH37 inh = blocks the human deubiquitinase UCH37; purified proteasome/UCH37, Ub-AMC cleavage fluorescence; Q9Y5K5; 330,000 compounds, 0.33% hits; inhibition, % (test concentration not listed);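 active = mean of two replicates above 20%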;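 also: 0% = compound-free wells with enzyme and 100% = wells lacking proteasome; stock transfer was 100 nL into about 20 µL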
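Material: human UCH37 enzyme supplied as purified proteasome complex / Amount: 0.15 nM proteasome as dispensed / Buffer or medium: pH 7.4 Tris-HCl (50 mM) with ovalbumin, ATP-MgCl2, DTT / Times: preincubation 30 min, reaction 25 min, room temperature / Technique: AMC fluorescence from Ub-AMC cleavage, excitation 355 nm, emission 460 nm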
Ecoli growth = inhibitors of Escherichia coli growth | OD600, 23 h; stronger effect = lower value | OD600 absorbance (no concentration beside the values) | 330,000 compounds, 0.21% hits | AID 1053175;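 active = OD600 absorbance below the run mean of sample wells minus 3.6 SD, in any replicate, cut at about 0.56 in these data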;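 also: stock transfer was 300 nL into about 60 µL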
HNF4A DNA FP = change in binding of human HNF4 alpha to DNA; HNF4a-FITC DNA binding, fluorescence polarization, 1 h; activity change, % at 10 µM; AID 1224865; 360,000 compounds, 0.3% hits; in the data active = activity change above about 30%, passing the limit was not always enough;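 also: controls were the assay level and a saturating level of protein; the project sought stronger binding though the title names inhibitors; some compounds called inactive have numbers as strong as hits; positive values seem to mean higher polarization but the record does not say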
Target sequence (P41235 whole entry, looked up): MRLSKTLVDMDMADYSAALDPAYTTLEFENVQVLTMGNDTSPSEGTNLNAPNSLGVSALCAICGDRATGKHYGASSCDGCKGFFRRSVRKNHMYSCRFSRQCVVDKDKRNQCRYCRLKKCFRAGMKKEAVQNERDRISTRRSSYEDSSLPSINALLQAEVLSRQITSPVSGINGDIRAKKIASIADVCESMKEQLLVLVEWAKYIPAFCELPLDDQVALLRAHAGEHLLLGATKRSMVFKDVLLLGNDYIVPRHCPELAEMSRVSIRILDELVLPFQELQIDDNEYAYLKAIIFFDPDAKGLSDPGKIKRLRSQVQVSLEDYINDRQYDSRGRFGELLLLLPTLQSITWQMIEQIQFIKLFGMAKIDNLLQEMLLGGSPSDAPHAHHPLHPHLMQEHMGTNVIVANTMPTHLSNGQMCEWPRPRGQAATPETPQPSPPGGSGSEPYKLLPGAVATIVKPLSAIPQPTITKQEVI
B2AR ag = agonists of human beta-2 adrenergic receptor inducing internalization | P07550 | Am2.2-beta2AR cells, FAP receptor internalization, flow cytometry; reference of the scale not given here | response, % (no concentration beside the values) | 340,000 compounds, 0.43% hits | AID 504454;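 active = response above a set limit, near 3 SD of response in nonfluorescent compounds, cut at about 42% in these data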;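 also: stock transfer was 100 nL into about 11 µL; a reference agonist was the positive control; negative values mostly stem from fluorescent compounds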
ALR inh = human ALR oxidase inhibition via reduced H2O2 | P55789 | purified ALR, DTT oxidation, H2O2 HRP-luminol luminescence | inhibition, % (no concentration beside the values) | 290,000 compounds, 3.8% hits | AID 485317;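 active = mean and each replicate at 75% or more; inconclusive = only one of the two met; inactive = neither met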;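 also: stock transfer was 7.5 nL into about 7.5 µL; 0% = neutral wells and 100% = wells with inactivated enzyme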
Target sequence (P55789 whole entry, looked up): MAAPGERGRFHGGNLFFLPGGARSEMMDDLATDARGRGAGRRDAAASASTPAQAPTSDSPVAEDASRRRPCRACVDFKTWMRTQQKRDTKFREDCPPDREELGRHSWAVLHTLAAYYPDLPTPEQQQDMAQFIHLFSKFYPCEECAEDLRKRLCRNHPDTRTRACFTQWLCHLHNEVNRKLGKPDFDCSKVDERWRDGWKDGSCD
LANA-H2B inh = blocks KSHV LANA binding to histone H2A/H2B | Q9QR71 | cell-free LANA-H2A/H2B peptide, fluorescence polarization | inhibition, % (concentration not given with the values) | 320,000 compounds, 0.6% hits; in the data active = inhibition mostly above about 10%, no sharp cut-off; inactive = mostly below about 6.7%;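 also: stock transfer was 7.5 nL into about 10 µL; 0% = median of vehicle wells and 100% = median of positive control wells; one replicate is shown; the record names a cut of 25% in any replicate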
FGF22 binding = binders of recombinant human FGF22 by thermal shift | SYPRO orange fluorescence; percent of sucrose octasulfate shift, DMSO zero | calls only at 9.99 µM | 340,000 compounds, 1.5% hits | AID 651658;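 active = melting point raised past a set limit in the mean and every replicate; inconclusive = no clear call; three in four hits are not shown here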
Target sequence (Q9HCT0 whole entry, looked up): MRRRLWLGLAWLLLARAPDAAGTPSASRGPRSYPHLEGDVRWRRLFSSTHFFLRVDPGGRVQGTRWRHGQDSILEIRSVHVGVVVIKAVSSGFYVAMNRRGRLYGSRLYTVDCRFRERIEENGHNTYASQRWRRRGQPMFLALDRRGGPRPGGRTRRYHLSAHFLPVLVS
* = called active by the depositor. These rows are one share of the data. The share of hits here may be higher or lower than overall.

`Cc1nc2c(-c3ccc(F)cc3)c(C)nn2c(C)c1CCC(=O)N1CCN(c2ccccn2)CC1` gave UCH37 inh 7.4, Ecoli growth 0.718, HNF4A DNA FP 1.4, B2AR ag 1.3, ALR inh -13.5, LANA-H2B inh 2.5 and FGF22 binding inactive.
Screening COc1ccc(C(=O)OCc2ccc(C)cc2)cc1S(=O)(=O)N1CCOCC1 returned UCH37 inh 1.2, Ecoli growth 0.695, HNF4A DNA FP 2.5, B2AR ag -0.4, ALR inh -0.4, LANA-H2B inh -2.6 and FGF22 binding inactive.
`O=C(CN1CCCCC1)N1c2ccccc2Oc2ccccc21` gave UCH37 inh 0.5, Ecoli growth 0.768, HNF4A DNA FP 0.2, B2AR ag -1.5 and LANA-H2B inh -2.7.
Screening Cc1cc(C(=O)NC2CCCc3c2cnn3-c2ccccc2F)nc(C)n1 (centres undefined) returned UCH37 inh 0.6, Ecoli growth 0.72, HNF4A DNA FP 0.0, B2AR ag 5.8, ALR inh 5.6, LANA-H2B inh -1.6 and FGF22 binding inactive.
Screening NS(=O)(=O)c1cccc(NC(=O)CSc2n[nH]c(-c3ccccc3Br)n2)c1 returned UCH37 inh 1.1, Ecoli growth 0.682, HNF4A DNA FP -1.4, B2AR ag -1.9 and FGF22 binding active.
Screening Cc1ccc(NC(=O)CSC(C)C(=O)NCCc2ccccn2)cc1 (centres undefined) returned UCH37 inh 3.6, Ecoli growth 0.676, HNF4A DNA FP 0.6, B2AR ag 5.7, ALR inh -0.9, LANA-H2B inh -4.3 and FGF22 binding inactive.
Screening CCOc1ccc(N(CC(=O)N/N=C/c2ccccn2)S(=O)(=O)c2ccc(Cl)cc2)cc1 returned HNF4A DNA FP -3.0, B2AR ag -8.4, ALR inh -8.6, LANA-H2B inh -2.0 and FGF22 binding inactive.
For CCOc1ccc(CN2CCC(C(=O)Nc3cccc(-c4ccn[nH]4)c3)CC2)cc1Cl the results were HNF4A DNA FP 0.2, B2AR ag 16.1, ALR inh -21.4 and FGF22 binding inactive.
Screening Cc1ccc2c(c1)-c1c(cnn1CC(=O)N1CCCN(Cc3ccccc3F)C1)CO2 returned UCH37 inh 2.2, Ecoli growth 0.73, HNF4A DNA FP -1.7, B2AR ag 7.7, ALR inh -52.3, LANA-H2B inh 3.2 and FGF22 binding inactive.
Screening CCOP(=O)(c1ccc(N(C)C)cc1)C(O)c1c(Cl)cccc1Cl (centres undefined) returned UCH37 inh 0.0, Ecoli growth 0.702, HNF4A DNA FP 0.8, B2AR ag -4.0 and LANA-H2B inh -0.4.
`Cc1cc(C)cc(OCCNC(=O)c2ccc(Br)cc2)c1` gave UCH37 inh 1.6, Ecoli growth 0.639, HNF4A DNA FP -2.8, B2AR ag -17.0, ALR inh -3.5, LANA-H2B inh -8.4 and FGF22 binding inactive.
For Cc1nc2c(-c3ccccc3)c(C)nn2c(SCC(N)=O)c1Cc1ccccc1 the results were UCH37 inh 7.2, Ecoli growth 0.698, HNF4A DNA FP 5.7, B2AR ag -5.0, ALR inh -9.1, LANA-H2B inh -2.3 and FGF22 binding inactive.
Screening COC(=O)c1cc(Cl)nc2ccccc12 returned UCH37 inh 1.7, Ecoli growth 0.683, HNF4A DNA FP -5.4, B2AR ag 1.7, ALR inh inconclusive, LANA-H2B inh -0.2 and FGF22 binding inactive.
For CN(C)CCNC(=O)c1scc2c1CCCC2 the results were UCH37 inh 5.7, Ecoli growth 0.686, HNF4A DNA FP 0.2, B2AR ag -5.4, LANA-H2B inh 2.1 and FGF22 binding inactive.
Screening CN(Cc1ccccc1)c1ccc([N+](=O)[O-])cc1C(=O)O returned UCH37 inh 10.2, Ecoli growth 0.729, HNF4A DNA FP 2.1, B2AR ag -3.6, ALR inh 0.9, LANA-H2B inh 1.7 and FGF22 binding inactive.
`N=c1n(Cc2ccc(Cl)cc2)c2ccccc2n1CC(O)COc1ccccc1` (centres undefined) gave UCH37 inh 3.3, Ecoli growth 0.618, HNF4A DNA FP 2.5, B2AR ag 42.7*, ALR inh -13.5 and LANA-H2B inh 6.0.
CCOC(=O)N1CCN(C(=O)C(NC(=O)c2ccc(CC)cc2)C(C)C)CC1 (centres undefined) was read as UCH37 inh 2.3, Ecoli growth 0.639, HNF4A DNA FP 10.1, B2AR ag -4.7, ALR inh -8.2 and LANA-H2B inh -3.3.
Screening O=C(NCc1ccccc1)N(Cc1cc2cc3c(cc2[nH]c1=O)OCCO3)CC1CCCO1 (centres undefined) returned UCH37 inh -26.3, Ecoli growth 0.767, HNF4A DNA FP -1.3 and B2AR ag 4.2.
For CCCC(=O)Nc1nc2ccc(S(=O)(=O)N3CCCCC3)cc2s1 the results were UCH37 inh 2.3, Ecoli growth 0.73, HNF4A DNA FP 3.7, B2AR ag 16.1, ALR inh 2.2, LANA-H2B inh 0.1 and FGF22 binding inactive.
For O=C(O)c1ccc(OCc2cn3ccccc3n2)cc1 the results were HNF4A DNA FP -0.9, B2AR ag 1.1, ALR inh 0.4, LANA-H2B inh 1.8 and FGF22 binding inactive.
CN1CCN(C(=O)C2=C[C@@H](C(C)(C)C)C[C@@H](OCc3ccc(CO)cc3)O2)CC1 was read as UCH37 inh 6.0, HNF4A DNA FP 5.0, B2AR ag -5.4, ALR inh -0.9, LANA-H2B inh -4.8 and FGF22 binding inactive.
CCN(CC)S(=O)(=O)c1cccc(C(=O)NCc2ccccc2)c1 was read as UCH37 inh 1.7, Ecoli growth 0.714, HNF4A DNA FP 1.1, B2AR ag -4.0, ALR inh -0.5, LANA-H2B inh -0.1 and FGF22 binding inactive.
For Cc1nn(C)c(C)c1S(=O)(=O)N1CCCC(C(=O)NCC2COc3ccccc3O2)C1 (centres undefined) the results were UCH37 inh 4.6, Ecoli growth 0.686, HNF4A DNA FP -1.6, B2AR ag -16.1, ALR inh -3.3, LANA-H2B inh -3.3 and FGF22 binding inactive.
Screening COc1ccc(C2Nc3ccccc3NC3=C2C(=O)CC(C)(C)C3)cc1O (centres undefined) returned UCH37 inh 6.5, Ecoli growth 0.643, HNF4A DNA FP -1.0, B2AR ag 10.5, LANA-H2B inh 4.2 and FGF22 binding inactive.
CCOCCCNS(=O)(=O)c1ccc(NC(=O)c2ccc([N+](=O)[O-])cc2Cl)cc1 was read as UCH37 inh 4.7, Ecoli growth 0.652, HNF4A DNA FP -0.5, B2AR ag -0.5, ALR inh -15.7, LANA-H2B inh 2.6 and FGF22 binding inactive.
`Cc1c(OC(C)C(=O)NCCCN2CCOCC2)ccc2c3c(c(=O)oc12)CCCC3` (centres undefined) gave UCH37 inh -34.2, Ecoli growth 0.669, HNF4A DNA FP -0.5, B2AR ag -18.7, ALR inh -4.2, LANA-H2B inh 7.1 and FGF22 binding inactive.
Screening CCOC(=O)c1c(C)[nH]c(C(=O)CN(C)CC(=O)Nc2ccccc2C(F)(F)F)c1C returned UCH37 inh 1.5, Ecoli growth 0.636, HNF4A DNA FP 2.5, B2AR ag -2.1, LANA-H2B inh -11.8 and FGF22 binding inactive.
`O=C(O)c1ccc2[nH]c3c(c2c1)CSCC3` gave UCH37 inh -0.9, Ecoli growth 0.674, HNF4A DNA FP 1.5, B2AR ag 5.7 and LANA-H2B inh 1.1.
Screening CN1C/C(=C\c2ccc(N3CCOCC3)cc2)C(=O)/C(=C/c2ccc(N3CCOCC3)cc2)C1 returned UCH37 inh 6.6, Ecoli growth 0.678, HNF4A DNA FP 5.7, B2AR ag 14.4, ALR inh 78.5* and LANA-H2B inh 4.4.
For CCc1ccc(C(CNc2nc(C(F)(F)F)nc3ccccc23)N(C)C)cc1 (centres undefined) the results were UCH37 inh -0.7, Ecoli growth 0.63, HNF4A DNA FP 2.9, B2AR ag 4.9, ALR inh -6.8, LANA-H2B inh 4.1 and FGF22 binding inactive.
Cc1cccc(Nc2ncnc3onc(-c4ccc(F)cc4)c23)c1C was read as UCH37 inh 3.2, Ecoli growth 0.686, HNF4A DNA FP -1.1, B2AR ag -6.4, ALR inh 0.8, LANA-H2B inh 1.1 and FGF22 binding inactive.
Cc1cccc(NC(=O)c2cc(S(=O)(=O)NCc3ccco3)ccc2F)c1C was read as UCH37 inh 1.0, Ecoli growth 0.718, HNF4A DNA FP 1.4, B2AR ag 20.2, ALR inh -30.9 and LANA-H2B inh -0.5.
Screening COc1cc(OC)c(OC)cc1/C=C/c1cc(C(=O)O)c2ccccc2n1 returned UCH37 inh 10.3, Ecoli growth 0.696, HNF4A DNA FP -3.1, B2AR ag 8.2, ALR inh -22.9, LANA-H2B inh 3.6 and FGF22 binding inactive.
Screening COc1ccc(Cl)cc1N(CC(=O)N1CCN(Cc2ccccc2)CC1)S(C)(=O)=O returned UCH37 inh 0.3, Ecoli growth 0.661, HNF4A DNA FP 1.4, B2AR ag 3.8, ALR inh 0.2 and LANA-H2B inh 1.7.
`CC1CCN(CCOCCOc2ccc(Br)cc2Cl)CC1` gave UCH37 inh 0.0, Ecoli growth 0.607, HNF4A DNA FP 4.1, B2AR ag 2.1, ALR inh -4.2 and LANA-H2B inh -5.7.
`O=C(NCC1CCCO1)C1CCN(S(=O)(=O)c2cccc3cccnc23)CC1` (centres undefined) gave UCH37 inh 6.0, Ecoli growth 0.764, HNF4A DNA FP 1.9, B2AR ag 0.2 and FGF22 binding inactive.
Screening Cc1cc(NC(=O)CSc2nnc(C3CC3)n2N)c([N+](=O)[O-])cc1C returned UCH37 inh 7.3, Ecoli growth 0.673, HNF4A DNA FP -1.2, B2AR ag -7.3, ALR inh -10.8, LANA-H2B inh 1.6 and FGF22 binding inactive.
O=C(Nc1ccc(S(=O)(=O)Nc2ccccc2F)cc1)N1CCCCC1 was read as UCH37 inh 3.2, Ecoli growth 0.684, HNF4A DNA FP 1.6, B2AR ag 8.7, ALR inh -1.3, LANA-H2B inh -0.2 and FGF22 binding inactive.
COc1ccc(Cl)cc1C(=O)Nc1cccc(-c2ccc3nncn3n2)c1 was read as UCH37 inh 1.4, Ecoli growth 0.668, HNF4A DNA FP 54.8*, B2AR ag 77.3*, ALR inh -6.5, LANA-H2B inh 2.3 and FGF22 binding inactive.
For Cc1ccc(-c2nnc(N(C)C(=O)c3ccncc3)s2)cn1 the results were UCH37 inh 3.6, Ecoli growth 0.751, HNF4A DNA FP -0.8, B2AR ag -7.6, ALR inh -3.0 and LANA-H2B inh 4.7.

Pulled one by one from the entries so far, two records:
Cc1cccc(Nc2ncnc3onc(-c4ccc(F)cc4)c23)c1C was read as UCH37 inh 3.2, Ecoli growth 0.686, HNF4A DNA FP -1.1, B2AR ag -6.4, ALR inh 0.8, LANA-H2B inh 1.1 and FGF22 binding inactive.
Cc1cccc(NC(=O)c2cc(S(=O)(=O)NCc3ccco3)ccc2F)c1C was read as UCH37 inh 1.0, Ecoli growth 0.718, HNF4A DNA FP 1.4, B2AR ag 20.2, ALR inh -30.9 and LANA-H2B inh -0.5.

(listing goes on)
Screening COc1c2ccoc2c(OCC=C(C)C)c2oc(=O)ccc12 returned UCH37 inh -0.3, Ecoli growth 0.658, HNF4A DNA FP -3.2, B2AR ag -10.3, ALR inh -5.7, LANA-H2B inh 4.2 and FGF22 binding inactive.
For CC(=O)c1cc2c(O)c(O)ccc2o1 the results were UCH37 inh 0.5, Ecoli growth 0.707, HNF4A DNA FP 0.5, B2AR ag -3.4 and LANA-H2B inh 2.6.
Screening Cn1cccc1CNCC(O)c1ccccc1 (centres undefined) returned UCH37 inh 1.6, Ecoli growth 0.639, HNF4A DNA FP -1.8, B2AR ag 7.2, ALR inh 43.9, LANA-H2B inh 0.1 and FGF22 binding inactive.
`O=S1(=O)C=CC(N2CCOCC2)C1` (centres undefined) gave UCH37 inh 5.1, Ecoli growth 0.793, HNF4A DNA FP -1.2, B2AR ag 2.4, ALR inh -0.5 and LANA-H2B inh -10.6.
Screening O=c1c2ccccc2nc(-c2ccccc2)n1/N=C/c1ccc([N+](=O)[O-])cc1 returned HNF4A DNA FP 0.9, B2AR ag -16.0, ALR inh -27.7 and LANA-H2B inh -2.1.

Source: PubChem BioAssay (several laboratories)
